Bioassay records deposited in PubChem BioAssay by National Center for Advancing Translational Sciences (NCATS).
GLA inh pH 4.5: inhibitors of human alpha-galactosidase A at pH 4.5. purified enzyme, 4-MU-alpha-Gal fluorescence, pH 4.5. 230,000 tested, under 10 active. activity change, negative = inhibition, % at 105 µM; inconclusive = small, poorly fitted or top-dose-only inhibition, or a rising curve; inactive = flat fitted curve, though single readings scatter; no compound was filed as active;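 also: 0% = full activity with enzyme and -100% = basal without enzyme; dose as in the result columns while the protocol names 77 µM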
miR-21 reporter: raises the signal of a miR-21 reporter | HeLa miR-21 FLuc reporter, luciferase, 48 h | Potency, µM (doses to about 38.3 µM), for the others: top-dose reporter change, positive = more light | 340,000 tested, under 10 active | AID 2288; active = well fitted rising curve with a large enough effect; inconclusive = small, poorly fitted or top-dose-only effect; inactive = no such curve, though single readings can be large or run the other way;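 also: % of control where 0% means no effect; miR-21 action dims this reporter so a rising signal means less miR-21 action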
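HeLa cells endogenously expressing miR-21, stably carrying CMV-driven firefly luciferase with a downstream miR-21 binding site, 2000 cells/well. Titrations up to approximately 40 uM, 48 hours; luciferase luminescence read.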
Rango dissoc inh: prevents RanGTP from dissociating the Rango-importin beta complex; Biochemical FRET Rango-importin beta, RanGTP-induced dissociation; AID 540253; Potency, µM (series often up to 46.1 µM), for inactives: at the highest dose activity change, negative = inhibition; 340,000 tested, 0.071% active; O95149+P62826; active means falling FRET ratio curve, often poorly fitted, with flat reads before Ran was added; inconclusive means other falling curves, or compound fluorescence or quenching; inactive means flat or rising ratio curve;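 also: potency is read from the fitted curve at half-maximal effect; % of control where 0% means no effect; nearly all actives have a fitted effect of over 45% in size; -100% = wells without RanGTP and RCC1; the record marks most hits as doubtful in a second field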
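Compounds preincubate 5 min with complex of recombinant Rango and importin beta in PBS with 1 mM DTT. Ran (0.6 uM) loaded with 2 mM GTP plus 0.2 uM RCC1 starts dissociation; FRET is recorded 45 min later.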
Rango-impB inh: prevents formation of the Rango-importin beta complex; Q14974; Rango CFP/YFP FRET sensor + importin beta, 45 min; Potency, µM (series often up to 92.2 µM), for inactives: at the top dose inhibition of complex formation; 340,000 tested, 0.031% active; AID 540263; active = rising FRET ratio curve, often small or poorly fitted; inconclusive = mostly compound fluorescence or quenching in the first reads; inactive = flat curves in all reads;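 also: potency is read from the fitted curve at half-maximal effect; 0% = DMSO wells and 100% = buffer wells lacking importin beta; nearly all actives have a fitted effect of over 15% in size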
Target sequence (Q14974 whole entry, looked up): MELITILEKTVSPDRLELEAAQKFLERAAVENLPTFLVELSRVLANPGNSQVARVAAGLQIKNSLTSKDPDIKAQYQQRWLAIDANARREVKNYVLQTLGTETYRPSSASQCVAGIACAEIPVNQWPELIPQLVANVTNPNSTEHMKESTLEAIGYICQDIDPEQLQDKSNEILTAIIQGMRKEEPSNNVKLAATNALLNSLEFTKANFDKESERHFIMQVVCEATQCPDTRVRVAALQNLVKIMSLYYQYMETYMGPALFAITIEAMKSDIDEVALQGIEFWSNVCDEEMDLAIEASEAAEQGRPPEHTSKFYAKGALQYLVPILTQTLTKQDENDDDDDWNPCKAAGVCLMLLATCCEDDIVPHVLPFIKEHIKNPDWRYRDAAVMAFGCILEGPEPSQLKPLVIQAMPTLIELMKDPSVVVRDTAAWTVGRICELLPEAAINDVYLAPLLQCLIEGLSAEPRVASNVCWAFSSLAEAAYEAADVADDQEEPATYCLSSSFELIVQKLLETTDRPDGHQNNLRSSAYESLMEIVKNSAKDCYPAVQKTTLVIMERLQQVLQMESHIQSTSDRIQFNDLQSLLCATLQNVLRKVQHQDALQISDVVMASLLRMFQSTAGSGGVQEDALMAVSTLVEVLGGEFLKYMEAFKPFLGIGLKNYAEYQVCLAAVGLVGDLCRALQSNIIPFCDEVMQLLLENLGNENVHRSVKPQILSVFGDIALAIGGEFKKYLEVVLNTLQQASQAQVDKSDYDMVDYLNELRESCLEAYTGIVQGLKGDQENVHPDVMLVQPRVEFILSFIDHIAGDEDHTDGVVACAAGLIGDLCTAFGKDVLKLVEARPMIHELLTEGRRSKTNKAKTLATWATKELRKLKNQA
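FRET biosensor Rango (snurportin 1 IBB between N-terminal EYFP and C-terminal Cerulean), 50 nM in PBS/1 mM DTT/0.02% Tween-20/0.1% BSA, preincubated 5 min RT with compound; 0.125 microM importin beta added, 45 min RT, CFP/YFP FRET ratio read.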
Active calls of the source: *; ? = inconclusive; . = not tested or not shown; & = joins results of further samples; [ ] = remark or other dose. Some of the compounds tested; rates above refer to the full screens.

GLA inh pH 4.5	miR-21 reporter	Rango dissoc inh	Rango-impB inh	mol
1.3	19.2%	0.6%	0.1%	CCC1(C)CC2(CCCN(CCC(O)(c3ccccc3)c3ccccc3)C2)CCO1 (configuration not stated)
-4.6	-63.8%	-9.2%	3.6%	CNc1nc(N2CCc3ccccc32)ncc1F
.	.	-1.7%	4.0%	O=C(NCc1ccccn1)C1CC(=O)N(C2CCCC2)C1 (configuration not stated)
7.7	-15.3%	4.3%	-2.5%	O=C(Nc1ccc(S(=O)(=O)Nc2nccs2)cc1)C1CCCCC1
1.2	3.7%	-3.8%	-1.0%	CC(NC(=O)Cn1nc(-c2ccccc2)ccc1=O)c1ccccc1 (configuration not stated)
2.8	-1.4%	-0.4%	-5.9%	COc1ccc(OCc2nc(C#N)c(NCCCn3ccnc3)o2)cc1
?	0.2%	0.6%	1.2%	COc1ccccc1N1CCN(C(=O)CN(C)S(=O)(=O)c2cc(C)ccc2OC)CC1
8.8	6.2%	2.7%	-1.5%	CCn1c(Cc2ccccc2)nnc1SCC(=O)Nc1ccc2c(c1)OCO2
-3.1	-30.1%	?	?	Cc1cnc(C(=O)OCC(=O)c2csc(N3CCCCC3)n2)cn1
1.0	-9.9%&-21.2%	8.0%	-1.6%	CCc1ccc(NC(=O)c2c(C(=O)Nc3ccccc3)sc3nc(C)cc(=O)n23)cc1
5.4	1.3%	-3.1%	0.1%	COC(=O)c1ccccc1NC(=O)CSc1nnc(-c2cccnc2)n1N
.	-5.1%	1.4%	-1.6%	COc1ccc(-c2nc(CSCC(=O)NC3CC3)c(C)o2)cc1OC
1.7	-69.0%	11.9%	0.9%	CCCNC(=O)c1cccc(COc2ccccc2OC)c1
-4.0	17.8%	-4.6%	5.1%	S=C(NC1CCCC1)NC1CC1
1.8	3.5%	-16.7%	2.3%	CCn1c(=S)sc2c(=O)[nH]c(C)nc21
17.2	14.7%	7.2%	0.2%	Fc1cccc(Cl)c1CSc1nnnn1-c1ccc2c(c1)OCO2
3.6	2.4%	-10.3%	-3.6%	O=C(COC(=O)[C@@H]1CCCN1C(=O)c1cccs1)Nc1ccc(F)cc1[N+](=O)[O-]
-6.1	-10.5%	-4.3%	5.8%	COc1ccc(-n2cccc2C=O)cc1
8.5	-2.3%	.	.	Cc1ccc2c(Cl)cc(Cl)c(OCC(=O)Nc3cc(C)on3)c2n1
.	-0.1%	30.3%	1.5%	O=C(NCc1n[nH]c(=S)n1-c1ccc(Cl)c(Cl)c1)c1ccco1
5.4	-4.0%	-15.8%	0.4%	Cc1cc(C)c(S(=O)(=O)N2CCCOC2CNC(=O)C(=O)NCc2ccccn2)c(C)c1 (configuration not stated)
.	-1.0%	0.4%	-3.0%	CC(C(=O)c1ccc(-c2ccccc2)cc1)[n+]1cccc(C(N)=O)c1 (configuration not stated)
-10.5	-2.6%	-0.2%	-1.7%	O=c1[nH]c2ccc(Cl)cc2c(-c2ccccc2)c1SC(=S)N1CCCCC1
-2.3	-4.1%	-13.7%	2.1%	CNC(=O)COc1ncnc2scc(-c3ccc(F)cc3)c12
3.9	-13.2%	8.7%	-2.2%	CCOC(=O)CSc1nnc2n(C3CCCCC3)c(=O)c3c4c(sc3n12)CCCC4
.	.	11.9%	-0.6%	N#Cc1ccc(CSc2nnc(NC(=O)CCc3nc4ccccc4c(=O)[nH]3)s2)cc1
3.0	-7.0%	19.9%	-5.0%	O=C(COc1cccc2ccccc12)NNC(=O)c1cccs1
-4.9	-1.5%	?	-0.9%	CCCNC(=O)COC(=O)/C=C/c1ccc(C)o1
1.4	-21.4%	0.1%	0.0%	Cc1ccc(C(=O)N/N=C\c2cc3c(cc2Br)OCO3)s1
-4.3	-12.2%	4.7%	2.4%	CCOC(=O)C(NC(=O)CC)(Nc1ccc(S(=O)(=O)Nc2cc(C)on2)cc1)C(F)(F)F (configuration not stated)
.	-1.5%	-4.1%	-1.0%	CCOC(=O)C1CCCN(CC(=O)Nc2nc(-c3ccccc3)cs2)C1 (configuration not stated)
.	-1.3%	18.2%	2.9%	CN(C(=O)C(=O)c1cn(CC(=O)N2CCCC2)c2ccccc12)C1CCCCC1
.	-0.4%	30.2%	1.6%	CCCOC(=O)C(C)n1cnc2scc(-c3ccc(C)cc3)c2c1=O (configuration not stated)
-2.8	13.9%	1.4%	4.7%	COc1ccc2cc(C(=O)C3CCCN(Cc4cccc(C)n4)C3)ccc2c1 (configuration not stated)
3.6	-3.7%	7.9%	-1.2%	O=C1CC(SC2=NCCS2)C(=O)N1c1ccc(Cl)cc1 (configuration not stated)
-4.6	14.5%	-1.0%	-0.8%	Cn1c(C(=O)N2CCC(C(=O)N3CCN(Cc4ccc5c(c4)OCO5)CC3)CC2)cc2sccc21
-1.0	-13.2%	15.0%	-5.7%	O=C(OCc1cc(=O)n2c(n1)sc1ccccc12)c1ccc2c(=O)n3c(nc2c1)CCC3
1.5	-11.4%	46.6%	6.0%	CCCCCC(=O)NC(Nc1ccc(S(N)(=O)=O)cc1)C(Cl)(Cl)Cl (configuration not stated)
2.3	1.0%	0.4%	-0.4%	CCN(CC)S(=O)(=O)c1ccc(C(=O)N2CCCCC2)cc1
.	-4.2%	8.6%	3.0%	CCC/C(O)=C1\C(=O)CC(C)(C)CC1=Nc1cccc([N+](=O)[O-])c1
.	.	2.6%	3.1%	COc1cccc(OC)c1C(=O)Nc1cccc(S(=O)(=O)Nc2ccccc2Cl)c1
.	.	10.0%	-5.0%	COc1ccc(S(=O)(=O)N2CCN(C(=O)c3cc(C)nc4ccccc34)CC2)cc1OC
3.1	-8.3%	10.9%	2.8%	COc1ccc(S(=O)(=O)N2CCCC2C(=O)Nc2ccc(C(C)=O)cc2)cc1 (configuration not stated)
-7.7	-1.2%	-8.6%	0.1%	COc1ccc(NC(=O)c2cc([N+](=O)[O-])ccc2N2CCCC2)cc1
1.9	25.6%	-4.3%	-4.0%	N#CC1=C(SCc2ccc(C#N)cc2)N=C(N)C(c2nc(-c3ccccc3)cs2)C12CCCCC2 (configuration not stated)
9.9	6.6%	-9.3%	4.6%	COC(=O)c1cc(Cc2ccc(N)c(C(=O)OC)c2)ccc1N
-2.0	-2.9%	-7.0%	-3.0%	O=C(COc1ccc(Cl)cc1Cl)Nc1ccc(S(=O)(=O)NC2=NCCCCC2)cc1
3.4	-0.2%	8.2%	0.3%	COc1cc(S(=O)(=O)N2CCCCC2)c(OC)cc1Br
5.7	-0.1%	-8.6%	0.8%	Fc1ccc(CN2CCCCCC2)c(F)c1
2.2	-48.2%	4.7%	0.9%	Brc1ccccc1-n1nnc(-c2nccs2)n1

(cont.)
GLA inh pH 4.5	miR-21 reporter	Rango dissoc inh	Rango-impB inh	mol
.	.	10.0%	?	COc1ccc(CN(C)C(=O)Cn2cnc(C(=O)Nc3ccc(C)c(C)c3)n2)cc1OC
-9.8	?	12.9%	0.0%	O=C(N/N=C/c1ccc([N+](=O)[O-])s1)c1cccc(Br)c1
-3.8	-0.8%	3.2%	0.8%	O=S(=O)(CC(c1ccccc1)N1CCCCC1)c1ccc(Cl)cc1 (configuration not stated)
5.5	-6.7%	-11.5%	-2.8%	c1ccc2nc(N3CCOCC3)c(N3CCOCC3)nc2c1
-1.3	-22.7%	30.3%	-1.1%	Nc1nnc(CSCc2ccc(Cl)cc2)s1
5.0	-46.4%	17.2%	1.4%	O=C(NC(=S)Nc1ccc2c(c1)OCCO2)c1ccco1
-14.1	-11.4%	6.1%	-0.5%	COc1ccc(N2C(=O)/C(=C\c3ccco3)N=C2SCC(=O)N(C(C)C)C(C)C)cc1Cl
.	-1.3%	-16.4%	0.9%	COc1ccc(OCc2nnc(SCC(=O)NC3CC3)n2C)cc1
6.4	-20.2%	-22.2%	1.7%	COc1cc2cnc(Cl)nc2cc1OC
.	.	-10.9%	0.0%	Cc1ccc(C(=O)NC2CCCC(C)C2C)cc1S(=O)(=O)N1CCCCC1 (configuration not stated)
.	-2.0%	0.0%	-0.1%	CC(=O)c1ccc(NC(=O)CN2C(=O)COc3ccc(S(=O)(=O)N4CCCC4)cc32)cc1
2.6	-15.9%	-1.3%	0.9%	OC1CCN(C(=S)NCCc2ccccc2)CC1
-1.8	-7.3%	2.2%	-0.7%	Cc1nccn1CCN(C)Cc1cn(Cc2ccccc2)nc1-c1ccc2c(c1)OCO2
.	.	19.4%	3.6%	CCc1cc(=O)[nH]c(SCC(=O)NCC2CCCO2)n1 (configuration not stated)
-4.4	-13.7%	2.2%	3.1%	COc1cccc(Nc2nnc(SCC(=O)N3CC(C)OC(C)C3)s2)c1 (configuration not stated)
-2.9	-7.6%	-13.3%	?	N#Cc1c(NC(=O)CSc2nc3c(c(C(F)(F)F)n2)CCc2ccccc2-3)sc2c1CCCC2
10.4	-8.5%	.	.	COc1ccc(CNC(=O)C2CCN(S(=O)(=O)c3cccc4cccnc34)CC2)cc1
.	-11.9%	-11.0%	1.1%	C/C(=N\Nc1c(F)c(F)c(Br)c(F)c1F)c1ccncc1
.	.	-5.0%	1.8%	CCOc1cc(C(=O)Nc2ccc(S(=O)(=O)NC3=NCCCCC3)cc2)cc(Br)c1OC
-1.6	-2.3%	-4.5%	-2.5%	O=C(CCNC(=O)c1ccccc1Cl)NCC12CC3CC(CC(C3)C1)C2
4.6	-9.7%	-3.1%	-4.1%	CN(C(=O)CSc1nnc2ccccn12)c1c(N)n(Cc2ccccc2)c(=O)[nH]c1=O
.	-5.2%	-15.2%	0.9%	COc1ccc(-c2nn3c(=O)c(C)nnc3s2)cc1
-6.4	2.1%	3.1%	1.8%	Cc1c(C(=O)NCc2cccs2)oc2ccc(S(=O)(=O)N3CCOCC3)cc12
6.2	-1.7%	13.9%	-1.5%	CC1=NN(c2ccc(S(=O)(=O)O)cc2C)C(=O)C1
.	-28.2%	-12.4%	-3.9%	CC(C)CN1CCC(=O)N(CCSc2ccccc2)CC1

Sorted by SMILES length (smallest number first): some entries from above.
GLA inh pH 4.5	miR-21 reporter	Rango dissoc inh	Rango-impB inh	mol
.	-1.3%	-16.4%	0.9%	COc1ccc(OCc2nnc(SCC(=O)NC3CC3)n2C)cc1
-3.8	-0.8%	3.2%	0.8%	O=S(=O)(CC(c1ccccc1)N1CCCCC1)c1ccc(Cl)cc1 (configuration not stated)
-4.4	-13.7%	2.2%	3.1%	COc1cccc(Nc2nnc(SCC(=O)N3CC(C)OC(C)C3)s2)c1 (configuration not stated)
-9.8	?	12.9%	0.0%	O=C(N/N=C/c1ccc([N+](=O)[O-])s1)c1cccc(Br)c1
.	.	-10.9%	0.0%	Cc1ccc(C(=O)NC2CCCC(C)C2C)cc1S(=O)(=O)N1CCCCC1 (configuration not stated)
-1.8	-7.3%	2.2%	-0.7%	Cc1nccn1CCN(C)Cc1cn(Cc2ccccc2)nc1-c1ccc2c(c1)OCO2
-2.9	-7.6%	-13.3%	?	N#Cc1c(NC(=O)CSc2nc3c(c(C(F)(F)F)n2)CCc2ccccc2-3)sc2c1CCCC2

More compounds follow:
GLA inh pH 4.5	miR-21 reporter	Rango dissoc inh	Rango-impB inh	mol
.	.	8.7%	2.3%	CC1(C)Cc2cccc(OCC(=O)Nc3cc(S(C)(=O)=O)ccc3Cl)c2O1
-5.9	-8.7%	-9.0%	4.3%	O=C(c1ccccc1)C1CCN(c2ncccc2[N+](=O)[O-])CC1
3.9	.	-1.4%	1.0%	CCOC(=O)CN1C(=O)N[C@@H](c2ccccc2)[C@@H](C(=O)OC)[C@H]1C
.	.	-14.5%	5.0%	CCCCN(C(=O)c1cc(-c2ccco2)nc2ccccc12)c1c(N)n(CCC)c(=O)[nH]c1=O
7.9	-69.7%	7.6%	3.9%	CC1=C(C)CC(C(=O)NCC(=O)c2ccccc2)C(C(=O)O)C1 (configuration not stated)
.	-5.0%	1.8%	1.6%	O=C(NCc1ccccc1Cl)C(=O)NCC1OCCCN1S(=O)(=O)c1cccs1 (configuration not stated)
-9.6[21.1 µM]	26.9%	-14.5%	-3.0%	C=CCn1c(O)c(N=NC(=S)Nc2ccccc2F)c2cc(S(=O)(=O)N3CCOCC3)ccc21
-1.8	4.2%	-11.7%	-0.7%	COc1cccc(N(CC(=O)NCCSc2ccc(Cl)cc2)S(C)(=O)=O)c1
.	.	-3.4%	-0.4%	CCc1ccccc1NC(=O)CN(C)C(=O)c1cc(C2CC2)nc2c1cnn2C(C)C
